# Screening data: PubChem, Southern Research Institute
# Mtb growth – Confirmatory growth inhibition assay against Mycobacterium tuberculosis H37Rv, potency (AID 1949); most inactive calls were filed without a number and no value below 0 was filed; inhibition, % at 10 µg/mL; hits with a dose series show IC50 in µg/mL; 100,000 compounds, 1.6% hits;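 active means confirmed in a dose series; inconclusive means about 50% or more but not retested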;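 further: bacteria grown 7 days with compound before Alamar blue readout; 0% = untreated bacteria and 100% = reference antibiotic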
# The depositor's hits bear a star; i = inactive; ? = inconclusive. This is a subset; count on the stated rates, not on these rows.
SMILES,Mtb growth
O=C(CN1CCN(c2ccccc2)CC1)N1c2ccccc2Sc2ccccc21,i
CC1CC(C)CN(S(=O)(=O)CC23CCC(CC2=O)C3(C)C)C1 (stereo not drawn),i
Cc1cc(C(C)(C)C)ccc1OCCOCCN(C)C,i
O=C(CSc1nc2scc(-c3ccco3)c2c(=O)n1-c1ccccc1)c1ccc(F)cc1,i
O=C(c1ccco1)N(Cc1ccco1)c1ccc(O)cc1,i
CCc1ccc(N2CCN(S(=O)(=O)N(C)C)CC2)cc1,0%
N#Cc1ccc(Oc2ccc(NC(=O)C3CC=CCC3C(=O)O)cc2)cc1 (stereo not drawn),i
Cc1ccc(S(=O)(=O)N(CC(=O)NC2CC2)c2ccc(C)c(Cl)c2)cc1,0%
Cc1ccc(C(=O)N/C(=C/c2ccc(N(C)C)cc2)C(=O)NC2CCCCC2)cc1,i
CC(C)CNC(=O)c1ccccc1NC(=O)COc1ccc(Cl)cc1,i
NC(=O)COc1ccc(NC(=O)c2ccc(Br)cc2)cc1,i
COC(=O)c1c(NC(=S)Nc2cc3oc4ccccc4c3cc2OC)sc2c1CCC2,i
O=C(Nc1ccc2oc(-c3ccc(OC(=O)c4ccco4)c(Br)c3)nc2c1)c1ccco1,46%
COc1ccc(CCCC(=O)Nc2ccc(Br)c(C)c2C)cc1C,i
Nc1c2c(nc3sc4c(c13)CCCC4)-c1ccccc1CC2,12%
COc1ccc(C(=O)OCC2CC2)cc1Br,i
CC1=C(C(=O)Nc2ccccc2)C(c2ccccc2)n2nnnc2N1 (stereo not drawn),i
O=C1CC(C(=O)NCc2ccccc2)N=C(N2CCOCC2)N1 (stereo not drawn),i
COc1ccc(Cl)cc1N(CC(=O)Nc1cccc([N+](=O)[O-])c1)S(C)(=O)=O,i
COc1ccc(CCNC(=S)NN2CCOCC2)cc1OC,i
NC(=O)CSCc1c(Cl)cccc1Cl,i
COc1cc2[nH]c(=S)n(Cc3ccco3)c(=O)c2cc1OC,i
CCOc1ccccc1OCCCN1CCCCC1,i
COc1ccc(S(=O)(=O)N2CCOCC2)cc1C(=O)Nc1ccc(F)cc1,i
CCCCc1ccc(NC(=S)NCCc2ccc(S(N)(=O)=O)cc2)cc1,?
SMILES,Mtb growth
Cc1ccc(SC(C)C(=O)N2CCN(c3ccccc3F)CC2)cc1 (stereo not drawn),i
CCc1ccc(C2C3=C(CC(C)(C)CC3=O)Nc3ncnn32)cc1 (stereo not drawn),5%
COc1ccc(Cl)cc1NC(=S)NCc1cccs1,i
Cc1ccc(C)c(NC(=S)N2CCOCC2)c1,3%
COC(=O)C1=C(C)NC2=C(C(=O)CCC2)C1c1cc(COc2ccccc2Cl)c(C)cc1C (stereo not drawn),32%
S=C(NCCc1ccccc1)N1CCN(C/C=C/c2ccccc2)CC1,1%
C=CCn1c(SCC#N)nc2scc(-c3ccc(F)cc3)c2c1=O,i
O=C(Cc1ccccc1)Nc1ncc2c(n1)CC(c1ccco1)CC2=O (stereo not drawn),i
O=C(Cc1ccccc1)Nc1cccc(-c2nc3cc(Cl)ccc3o2)c1,i
Cc1cc(Br)ccc1NC(=O)c1cccc(NC(=O)c2ccco2)c1,i
O=C(NCc1ccc2c(c1)OCO2)c1n[nH]c(=O)c2ccccc12,i
COc1cccc(CNc2ccc(Br)cn2)c1O,i
FC(F)(F)c1ccccc1NC(=S)Nc1cccc(Cn2cc(Cl)cn2)c1,i
O=C(Nc1ccc(S(=O)(=O)N2CCc3ccccc32)cc1)c1cc2ccccc2oc1=O,i
Cc1ccccc1C(=O)OC1CCCN(C)C1 (stereo not drawn),i
Cc1nc2ccccc2n1/C(=N/S(=O)(=O)c1ccc(Br)cc1)c1ccccc1,i
Cc1cc(C=O)c(C)n1-c1ccccc1F,i
O=C(c1ccc(Cl)cc1)n1c(NCc2ccccc2)n[nH]c1=S,i
Oc1c(C(Nc2ccccn2)c2ccco2)cc(Cl)c2cccnc12 (stereo not drawn),i
COC(=O)Cc1c(C)c2ccc(OCC(=O)OC(C)(C)C)c(C)c2oc1=O,i
O=C(CSc1nc2ccccc2c(=O)n1-c1ccc(Cl)cc1)Nc1cccc(Cl)c1,2%
O=S1(=O)NC(=NC2CCCCCC2)c2ccccc21,i
COc1ccc(S(=O)(=O)N2CCN(c3cccc(Cl)c3Cl)CC2)cc1OC,i
Cc1ccc(OCC(=O)n2cnnc2N)c(Br)c1,i
CN(C)CCN(Cc1ccccc1)c1ccnc(N(C)C)c1C#N,i
SMILES,Mtb growth
C#CC(CC)(CC)NC(=S)Nc1ccc(S(N)(=O)=O)cc1,i
Cc1cc(=O)oc2cc(OCC(=O)OC(C)C)ccc12,i
CCOc1cc(S(=O)(=O)NC2CCCC2)ccc1Cl,i
COc1c(Cl)cc(Cl)cc1C(=O)Nc1ccc(NC(=O)c2ccco2)c(C)c1,i
CC(=O)NC(=S)Nc1ccccc1-c1nc2ccccc2s1,i
Cc1ccc2ccccc2c1CN1CCN(c2ncnc3sc(C)c(C)c23)CC1,1%
O=C(c1ccco1)N(Cc1cccs1)C1CCS(=O)(=O)C1 (stereo not drawn),i
CN(CCC#N)C(=O)COc1ccc(Br)cc1Cl,i
Cc1cc(C)nc(NS(=O)(=O)c2ccc(N)cc2)n1,i
CC(C)N(Cc1nc(-c2ccccc2)no1)C(=O)C(Cl)(Cl)Cl,1%
Nc1cc(=O)[nH]c(SCc2ccc(Cl)cc2Cl)n1,i
COc1ccc(CNC(=O)Nc2cccc(C(F)(F)F)c2)cc1,i
O=C(OCc1ccc(Cl)cc1)c1ccc2c(c1)-c1ccccc1C2=O,i
CC12CCC(C(=O)Nc3ccc(Br)cc3)(CC1=O)C2(C)C (stereo not drawn),i
CS(=O)(=O)Nc1ccc2c(c1)C(=O)OC2,i
CC(=O)CSc1nnc(-c2cccnc2)o1,i
O=C1c2ccccc2C(=O)N1Cc1ccc(Cl)c(Cl)c1,i
Cc1cc2ccccc2n2c(SCC(=O)c3ccc4c(c3)OCCO4)nnc12,i
C=C1C2(C(=O)Nc3ccccc3F)CCC(C2)C1(C)C (stereo not drawn),i
CC1CCN(S(=O)(=O)c2ccc(NC(=O)Cc3ccc(Cl)cc3)cc2)CC1,i
COCCn1c(Cc2ccccc2)nnc1SCC(=O)Nc1ccc(Cl)c(C(F)(F)F)c1,i
C=CCn1c(SCC(=O)Nc2ccc(C(=O)OC)cc2)nnc1-c1ccccc1O,i
CC1CN(S(=O)(=O)c2cccs2)C(C)CN1S(=O)(=O)c1cccs1 (stereo not drawn),1%
O=c1c2c3c(sc2ncn1CCO)CCCC3,4%
CCC(CC)C(=O)Nc1ccc(S(=O)(=O)Nc2nccs2)cc1,i
SMILES,Mtb growth
COc1cc(C)c(C)cc1S(=O)(=O)n1nnc2ccccc21,i
CCN1CCN(C(=O)c2ccoc2C)CC1,1%
O=C(COc1ccc(S(=O)(=O)NCc2ccccc2)cc1)NCCc1ccccc1,6%
N#Cc1c(NC(=O)c2cccnc2)sc2c1CCC2,i
NC(=O)C1CCN(C2CC(=O)N(c3cccc(Cl)c3Cl)C2=O)CC1 (stereo not drawn),i
COc1cc(OC)cc(C(=O)Nc2ccc3oc(-c4cccc(C)c4)nc3c2)c1,i
O=C(Oc1ccccc1)c1cccc(COC(=O)c2cnccn2)c1,28µg/mL*
CCc1sc(NC(=O)c2cc(Cl)ccc2OC)nc1-c1ccccc1,1%
O=C(CCCSc1nnnn1-c1ccccc1)c1ccc(F)cc1,i
O=C(COc1ccccc1[N+](=O)[O-])Nc1ccccc1N1CCOCC1,3%
Cc1cc(Cl)ccc1OCC(=O)O/N=C(\N)c1ccc([N+](=O)[O-])cc1,i
COc1cc(CNc2ccc(N3CCOCC3)c(C(=O)O)c2)ccc1OCc1ccccc1,4%
Cc1ccc(NC(=O)c2cc([N+](=O)[O-])ccc2O)cc1,14µg/mL*
Cc1cc(C)c2c(c1)OCN(Cc1ccc3c(c1)OCO3)C2,2%
Cc1cc(C)nc(SCC(=O)Nc2ccc(S(=O)(=O)Nc3nccs3)cc2)n1,i
COc1ccc(N2CCN(C(=O)Nc3cccc(Cl)c3)CC2)cc1,i
O=C(NCCCCc1ccccc1)C1CCCCC1,i
COc1ccc(C(=O)NC(=S)Nc2nc(-c3ccc4ccccc4c3)cs2)cc1,i
Cc1cc(C)n(Cc2ccc(NC(=S)NC3CCCCC3)cc2)n1,i
Cc1cc(Br)cc(C)c1NC(=O)CSc1nnc(CSCc2ccccc2)n1C,i
CC(C)c1ccc(S(=O)(=O)Nc2ccc(O)cc2)cc1,0%
CCC(C)c1ccccc1OCC(=O)Nc1ccc(Cl)cc1 (stereo not drawn),4.7µg/mL*
O=C(NCc1ccccn1)C(=O)Nc1cccc(Cl)c1Cl,?
Cc1cccc(C)c1NC(=O)COc1ccc2c3c(c(=O)oc2c1C)CCCCC3,i
C=CCNC(=S)N(Cc1ccc(C)cc1)Cc1ccco1,8%

# Among those listed so far, these contain a cyano group.
SMILES,Mtb growth
N#Cc1ccc(Oc2ccc(NC(=O)C3CC=CCC3C(=O)O)cc2)cc1 (stereo not drawn),i
C=CCn1c(SCC#N)nc2scc(-c3ccc(F)cc3)c2c1=O,i
CN(C)CCN(Cc1ccccc1)c1ccnc(N(C)C)c1C#N,i
CN(CCC#N)C(=O)COc1ccc(Br)cc1Cl,i
N#Cc1c(NC(=O)c2cccnc2)sc2c1CCC2,i

# Next part
SMILES,Mtb growth
CCn1cc(Br)c(C(=O)Nc2ccc(C(C)=O)cc2)n1,i
CCc1ccc(OCc2cccc(C(=O)O)c2)cc1,i
COC(=O)c1ccccc1Nc1nc2ccccn2c(=O)c1C=O,i
NS(=O)(=O)c1ccc(NC(=O)CSc2nc(O)cc(=O)n2-c2ccccc2)cc1,i
COc1ccc(N(CC(=O)Nc2ccc(S(=O)(=O)N3CCCC3)cc2)S(C)(=O)=O)cc1OC,i
Cc1ccc(NC(=O)COc2cc(C)cc3oc(=O)c4c(c23)CCC4)cc1,2%
Cc1cc(C)c(S(=O)(=O)NC(CC(=O)O)c2ccccc2)cc1C (stereo not drawn),i
CCOc1ccc(-c2csc(NC(=O)COC)n2)cc1,i
CN(C)S(=O)(=O)c1ccc(C(=O)Oc2ccc(Cl)cc2)cc1,3%
Cc1ccc(NC(=O)c2cc(F)c(F)cc2Cl)cc1S(=O)(=O)N1CCOCC1,i
CN(C)c1ccc(-c2nc3cc(NC(=O)Cc4ccc(Cl)cc4)ccc3o2)cc1,i
CC(C)OC(=O)COc1ccc2c(=O)c(Oc3ccccc3Br)coc2c1,14µg/mL*
Cc1ccc(NC(=O)CC(O)(C(F)(F)F)C(F)(F)F)c(Br)c1,i
Cc1cc(/C=C(/C#N)c2nc3ccccc3[nH]2)c(C)n1-c1ccccn1,0%
COc1cc(C)c(C)cc1S(=O)(=O)N1CCCCC1c1cccnc1 (stereo not drawn),0%
CC12CCC(C(=O)Nc3ccc4c(c3)OCCO4)(CC1=O)C2(C)C (stereo not drawn),0%
O=C(NC(=S)Nc1ccc(S(=O)(=O)N2CCc3ccccc32)cc1)c1cccs1,i
O=C(CN(Cc1ccccc1Cl)S(=O)(=O)c1ccc(Cl)cc1)N1CCCCCC1,4%
COc1ccc(N(CC(=O)Nc2ccc(C)cc2C)S(C)(=O)=O)cc1,0%
COc1cc(S(=O)(=O)N2CCN(c3c(C)cc(C)cc3C)CC2)c(OC)cc1Cl,i
O=C(CN(c1cccc(Cl)c1)S(=O)(=O)c1ccc(Cl)cc1)NCC1CCCO1 (stereo not drawn),i
C=CCNCCOCCOc1ccc(Cl)c(Cl)c1,i
COc1cccc(CNCCc2ccc(OC)c(OC)c2)c1,i
O=C1c2ccc(-c3nc4ccccc4s3)cc2C(=O)N1Cc1ccncc1,i
O=C1c2ccccc2C(=O)N1CCc1ccccn1,i

# Some of the entries so far, tab-delimited:
structure	Mtb growth
CCn1cc(Br)c(C(=O)Nc2ccc(C(C)=O)cc2)n1	i
CCc1ccc(OCc2cccc(C(=O)O)c2)cc1	i
COC(=O)c1ccccc1Nc1nc2ccccn2c(=O)c1C=O	i
NS(=O)(=O)c1ccc(NC(=O)CSc2nc(O)cc(=O)n2-c2ccccc2)cc1	i

# An excerpt of these results, as labelled records.
SMILES: CCOc1ccc(-c2csc(NC(=O)COC)n2)cc1
  Mtb growth = i
SMILES: CN(C)S(=O)(=O)c1ccc(C(=O)Oc2ccc(Cl)cc2)cc1
  Mtb growth = 3%
SMILES: Cc1ccc(NC(=O)c2cc(F)c(F)cc2Cl)cc1S(=O)(=O)N1CCOCC1
  Mtb growth = i
SMILES: CN(C)c1ccc(-c2nc3cc(NC(=O)Cc4ccc(Cl)cc4)ccc3o2)cc1
  Mtb growth = i

# The list goes on.
SMILES,Mtb growth
O=C(CCCOc1ccc(Cl)cc1)Nc1cccc(Cl)c1,i
Cc1nc(SCc2nc3ccccc3[nH]2)[nH]c(=O)c1Cc1ccccc1,i
CN(C)c1ccc(NC(=S)NC(=O)C(c2ccccc2)c2ccccc2)cc1,i
O=C(NC(=S)NNC(=O)c1cnccn1)c1ccc(F)cc1,i
Cc1ccc(NC(=O)c2ccc(S(=O)(=O)N(C)C)cc2)cc1C,10%
C=CCNC(=O)C1CCC(=O)N1S(=O)(=O)c1ccc(C)cc1 (stereo not drawn),2%
CC(C)(C)c1cc(C(=O)N2CCCCC2)cc(C(C)(C)C)c1,i
CC1CC(C)CN(S(=O)(=O)c2cccc(C(F)(F)F)c2)C1 (stereo not drawn),i
CCOc1ccc(-c2cc(=O)c3ccccc3o2)cc1,0%
O=C(CN(c1cccc(Cl)c1)S(=O)(=O)c1ccc(Cl)cc1)NC1CC2CCC1C2 (stereo not drawn),i
O=C(NCCOc1ccccc1)c1ncn[nH]1,4%
O=C(CSc1ncnc2scc(-c3ccc(Cl)cc3)c12)NCCc1ccccc1,11%
c1ccc2c(c1)[nH]c1nc3nnnn3nc12,i
